KCNQ2 pot = potentiators of rat KCNQ2 potassium channel; AID 2239, 2010; B-score at 10 µM; 310,000 tested, 0.54% active; CHO-K1 KCNQ2, FluxOR thallium flux fluorescence; active compounds read high;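 active = fluorescence ratio B-score at least 3 SD of library B-scores, with initial fluorescence B-score within 3 SD, cut at about 5.3 in these data; same plate scores as AID 2156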;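 note: B-score of peak minus minimum over baseline fluorescence ratio after K+ and Tl+ stimulus; positive B-score means potentiation of KCNQ2 with more thallium influx and brighter signal; only the inactives scoring about 0 or higher are listed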
Target sequence (O88943 whole entry, looked up): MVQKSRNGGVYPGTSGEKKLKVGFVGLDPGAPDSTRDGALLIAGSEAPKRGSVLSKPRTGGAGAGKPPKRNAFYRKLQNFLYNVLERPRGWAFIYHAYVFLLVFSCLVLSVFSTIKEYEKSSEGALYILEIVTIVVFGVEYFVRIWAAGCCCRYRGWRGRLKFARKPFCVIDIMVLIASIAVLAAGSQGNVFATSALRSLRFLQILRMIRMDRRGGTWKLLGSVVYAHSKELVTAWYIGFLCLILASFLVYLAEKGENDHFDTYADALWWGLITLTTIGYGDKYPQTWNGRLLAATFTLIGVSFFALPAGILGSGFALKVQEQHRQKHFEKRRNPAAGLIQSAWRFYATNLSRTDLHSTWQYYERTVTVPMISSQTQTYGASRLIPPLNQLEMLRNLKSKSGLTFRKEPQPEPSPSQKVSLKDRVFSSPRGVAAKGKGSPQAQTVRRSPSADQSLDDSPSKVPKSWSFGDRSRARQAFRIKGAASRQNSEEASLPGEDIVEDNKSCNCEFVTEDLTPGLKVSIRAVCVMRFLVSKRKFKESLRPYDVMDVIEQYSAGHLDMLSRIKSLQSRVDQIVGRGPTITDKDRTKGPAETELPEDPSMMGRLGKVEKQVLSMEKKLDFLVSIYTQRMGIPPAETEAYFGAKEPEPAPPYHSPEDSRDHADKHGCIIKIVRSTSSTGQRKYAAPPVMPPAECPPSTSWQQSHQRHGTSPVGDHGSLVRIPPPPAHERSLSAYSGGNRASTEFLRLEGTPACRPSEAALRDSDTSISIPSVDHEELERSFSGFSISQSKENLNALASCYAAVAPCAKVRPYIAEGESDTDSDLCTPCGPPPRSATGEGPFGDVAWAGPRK
KCNQ2 pot baseline = recorded beside KCNQ2 pot, whose call it bears; B-score; compound at 10 µM; measured here: initial fluorescence intensity artifact check;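 brightness before thallium and not channel activity; 0 = typical well and far values either way flag optical interference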
* = called active by the depositor; · = no result given. The list is partial. The share of hits here may be higher or lower than overall.

Compound	KCNQ2 pot	KCNQ2 pot baseline
Cc1cc(C(=O)NCCc2ccc(S(N)(=O)=O)cc2)no1	0.02	-0.44
O=C(O)CC(c1cccc(C(F)(F)F)c1)N1CCS(=O)(=O)CC1 (stereo unspecified)	2.1	-1.8
COc1ccc(OC)c(C2CC(=O)Nc3cc(OC)c(OC)c(OC)c32)c1 (stereo unspecified)	0.15	-3.2
COC(=O)N1C(=O)[C@@](c2ccc(OC)cc2)(C(C)C)N1C(=O)OC	1.1	-0.23
CCOc1ccc(NS(=O)(=O)N(C)C)cc1	1.3	-1.2
O=C(NC1CCN(Cc2ccccc2)CC1)c1ccc(Oc2cc(Cl)cc(Cl)c2)o1	0.79	-0.74
COCCNC(=O)CCc1nc(-c2ccccc2)no1	0.72	1.5
Cc1c(O)nc(SC2CC(=O)N(c3cc(Cl)cc(Cl)c3)C2=O)[nH]c1=O (stereo unspecified)	2.1	-0.47
COc1ccc(NC(=O)Cn2nnc(C(=O)NCc3cccc(OC)c3)c2N)cc1	0.3	-1.2
O=C(NCc1cccs1)C1CCCCC1	0.77	-0.03
Cc1c(C(=O)Nc2ccncc2)sc2nc(-c3ccc(F)cc3)cn12	2	-0.34
COc1ccccc1C(=O)Nc1ccnn1C1CCN(C/C=C/c2ccc(F)cc2)CC1	1.7	-0.63
Cc1ccc(C(=O)NC(=S)Nc2c(C)ccc3nsnc23)cc1	0.1	-0.36
O=C(CC(=O)Nc1cccc(F)c1)Nc1cccc(F)c1	0.05	0.51
COc1cc(C(C(=O)NC2CCCC2)N(C(=O)c2snc(C(N)=O)c2N)C2CCCC2)cc(OC)c1OC (stereo unspecified)	0.65	2
CSc1nsc(NC(=O)OCc2ccc(Cl)cc2)n1	5.8*	-1.9*
CSc1nc2ncc(C#N)cn2n1	0.77	-1.4
O=C(Cc1ccc(Cl)cc1)NNC(=O)c1ccco1	0.21	-0.22
CCOC(=O)NC(=O)/C(C#N)=N\Nc1ccc(Cl)cc1	0.36	-0.35
CC(NC(=O)CCc1nnc(C2(c3ccc(Cl)cc3)CCC2)o1)C1CC1 (stereo unspecified)	1.2	-1.4
CC(C(=O)N1CCN(Cc2ccc3c(c2)OCO3)CC1)c1ccc([N+](=O)[O-])cc1 (stereo unspecified)	0.52	-0.01
C#CC1CN(Cc2ccccc2)CC(C#C)N1C (stereo unspecified)	0.28	-0.78
NC(=S)Nc1cccc(F)c1	1.1	0.59
CC(O)CN=c1cc(-c2ccccc2)oc2ccc(Cl)cc12 (stereo unspecified)	2.8	2.3
CC(C)c1ccc(NC2CCCN(C(=O)c3ccnn3C)C2)cc1 (stereo unspecified)	1.7	-0.04
COc1ccc(OC(C)C(=O)NC(C)c2ccccc2)cc1 (stereo unspecified)	0.38	-0.94
CC(C)CC(C(=O)N1CCOCC1)N1Cc2ccccc2C1=O (stereo unspecified)	0.16	0.09
COc1ccccc1C(=O)Nc1ccc(S(=O)(=O)N2CCCCC2c2cccnc2)cc1 (stereo unspecified)	0.17	-1.3
Cc1cc(NC(=O)CSc2cn(CCNC(=O)c3ccc(Cl)cc3)c3ccccc23)no1	0.45	1.9
Oc1c(CN2CCCCC2)cc(Br)c2cccnc12	8.4*	0.65*

Given with two lines to a compound: entries from further up.
Fields – KCNQ2 pot | KCNQ2 pot baseline
- CCOC(=O)NC(=O)/C(C#N)=N\Nc1ccc(Cl)cc1
 : 0.36 | -0.35
- O=C(Cc1ccc(Cl)cc1)NNC(=O)c1ccco1
 : 0.21 | -0.22

The list continues.
Compound	KCNQ2 pot	KCNQ2 pot baseline
Cc1cc(SCC(=O)NC(=O)NCc2ccco2)nc2ccccc12	2	-0.46
O=c1oc2c(-c3ccc([N+](=O)[O-])cc3)cc(O)cc2s1	0.27	-1.5
COc1ccc(C2/C(=C(\O)c3ccc4c(c3)OCCO4)C(=O)C(=O)N2Cc2cccnc2)cc1 (stereo unspecified)	0.07	0.78
CCN(CC)CC(=O)Nc1ccc2c(c1)N(C(=O)CN(CC)CC)c1ccccc1CC2	0.86	-1.8
Cc1cc(C(F)F)n2ncc(C(=O)NC3CCCCCC3)c2n1	1.4	-2.2
CC1CCCN(C(=O)c2nn(C)c3c2CS(=O)(=O)c2ccccc2-3)C1 (stereo unspecified)	1.9	1
COc1ccc(/C=N/NC(=O)C(Cc2c[nH]c3ccccc23)NC(=O)OCC(C)C)cc1[N+](=O)[O-] (stereo unspecified)	0.01	-0.04
COc1cccc(CNC(=O)c2cccc(NC(=O)C3=C(C)OCCS3)c2)c1	2.4	0.9
O=c1c(-c2ccc(O)cc2)coc2cc(O)cc(O)c12	1.9	-0.16
NC(=O)CC1C(=O)N(c2ccccc2)C(=S)N1NC(=O)c1ccc(Br)cc1 (stereo unspecified)	0.31	-0.05
Nc1nc(NCCO)nc(NCc2ccccc2)c1[N+](=O)[O-]	1.6	0.17
COc1cccc(C2CC(c3ccc(C(C)C)cc3)n3nc(N)nc3N2)c1 (stereo unspecified)	0.17	0.8
CNC(=O)c1[nH]cnc1C(=O)Nc1ccc(OC)cc1	1.1	-0.86
CCc1cc(C(=O)N/N=C/c2ccc(O)cc2)c2ccccc2n1	0.02	1.5
Cc1ccc(-n2nnnc2-c2cnc3cc4c(cc3c2C)OCO4)cc1	0.98	0.82
N=c1c2c(n(Cc3ccccc3)c3c1CCC3)CCC2	0.01	0.74
CC(=O)c1cccc(CN2CCC(n3nccc3NC(=O)CCCc3ccccc3)CC2)c1	1.5	-2
O=C(O)CN1C(=O)/C(=C\c2cccc(OCc3ccccc3F)c2)SC1=S	2.8	-0.55
Cn1c(Cc2ccccc2)nnc1SCC(=O)NCCc1ccccc1	0.58	0.49
C=CCc1c(N(CC)CC)nc(C)[nH]c1=O	0.12	-0.87
Clc1ccc(-c2cccs2)nn1	0.13	-0.15
COc1ccc(Br)cc1CNCCSc1nnnn1C	2.1	4.5
CCN(CC)CCCNC(=O)CC1Sc2ccccc2NC1=O (stereo unspecified)	1.4	1.4
Cc1ccccc1Nc1nc(N)nc(CSc2ccccc2)n1	2	-2.8
Nc1ccc(-n2nncc2-c2ccccc2)cc1	0.04	-0.47
NC(=O)c1oc2ccccc2c1NC(=O)CCc1ccccc1	1.4	0.64
CCC(=O)Nc1nc2ccc([N+](=O)[O-])cc2s1	0.03	0.16
CCn1c(SCC(=O)N2CCc3ccccc32)nnc1-c1ccco1	1.2	0.08
CCN(CC)c1ccc(/C=N/N2CCOCC2)cc1	0.04	-0.29
CCCCn1c(SCC(=O)Nc2cc(C)on2)nnc1-c1cccs1	0.63	2.1

6 consecutive entries already listed:
Compound	KCNQ2 pot	KCNQ2 pot baseline
Cc1ccc(-n2nnnc2-c2cnc3cc4c(cc3c2C)OCO4)cc1	0.98	0.82
N=c1c2c(n(Cc3ccccc3)c3c1CCC3)CCC2	0.01	0.74
CC(=O)c1cccc(CN2CCC(n3nccc3NC(=O)CCCc3ccccc3)CC2)c1	1.5	-2
O=C(O)CN1C(=O)/C(=C\c2cccc(OCc3ccccc3F)c2)SC1=S	2.8	-0.55
Cn1c(Cc2ccccc2)nnc1SCC(=O)NCCc1ccccc1	0.58	0.49
C=CCc1c(N(CC)CC)nc(C)[nH]c1=O	0.12	-0.87

The list goes on.
compound	KCNQ2 pot	KCNQ2 pot baseline
CCN(c1ccc(NC(=O)COC(=O)c2ccc3ccccc3n2)cc1)C(C)C	0.04	2
CCOC(=O)Cn1c(=NC(=O)c2nc3ccccc3s2)sc2cc(S(N)(=O)=O)ccc21	0.15	0.11
Cc1ccc(-c2nnc(SCC(=O)N3c4ccccc4NC(=O)C3(C)C)n2N)cc1	0.03	2.5
Cc1ccc(C=Nc2cccnc2N)cc1	0.63	-1.6
CC1CCCC(C)N1CCCNC(=O)CN1C(=O)COc2ccc(S(=O)(=O)N3CCOCC3)cc21 (stereo unspecified)	1.4	0.17
COc1nc(C)c2cc(C)oc2n1	1.6	0.13
COc1ccc(CCNC(=O)C2CCN(C(=O)c3ccc(F)cc3)CC2)cc1	2.1	0.02
O=[N+]([O-])c1ccc(O)c(C=Nc2ccc3c(c2)OCO3)c1	0.76	-1.8
COc1ccccc1NC(=O)NC1CCCCCCC1	0.16	2.3
CCOC(=O)C1CCN(C(=O)CCc2ccc(S(=O)(=O)NCC(C)C)cc2)CC1	0.09	1.2
COc1ccc(S(=O)(=O)Nc2nc3ccccc3nc2Nc2ccc3c(c2)OCO3)cc1	1.6	0.18
Cc1ncoc1C(=O)Nc1ncc([N+](=O)[O-])s1	0.8	1.8
COc1ccc(CNC(=O)c2cccc(NC(=O)c3ccccc3)c2)cc1	0.57	-0.44
CC(C)CNc1oc(-c2ccc(F)cc2)nc1C#N	0.82	0.01
Cn1c(SCC(=O)N2CCc3ccccc3C2)nnc1-c1cccs1	2.5	-0.66
Cc1ccc(NC(=S)N2CCN(S(=O)(=O)c3c(F)cccc3F)CC2)cc1C	0.85	0.07
Cc1ccc(C(=O)N/C(=C\c2ccco2)C(=O)NCc2cccnc2)cc1	0.65	0.93
CCn1cc(C(=O)N[C@@H](CCSC)C(=O)NCCCOC)c(=O)c2cc3c(cc21)OCO3	1.6	-0.03
Cc1ccc(CNC(=O)c2ccc(NC(=O)CCS(=O)(=O)c3cccs3)cc2)cc1	0.08	-2
O=C(NCc1ccccc1Cl)c1ccc2c(=O)n(CCCN3CCCC3=O)c(=S)[nH]c2c1	0.64	-0.3
CC(C)C(=O)OCCN=C1NS(=O)(=O)c2ccccc21	0.3	-0.22
COc1cc(/C=C(/NC(=O)c2ccccc2)C(=O)Nc2ccc(O)cc2)c([N+](=O)[O-])cc1OC	0.84	-0.99
COc1ccc(OCC(=O)N2CCOCC2)cc1	1.1	0.38
CCNc1nc(OC)nc(N(OC)S(=O)(=O)c2ccc(C)cc2)n1	2.5	-0.94
CCCC(=O)Nc1ccc2oc(-c3ccncc3)nc2c1	0.3	-0.25
O=C(O)/C=C/C(=O)NNC(=O)c1ccc(Cl)cc1Cl	0.39	-0.5
O=C(N/N=C/C=C\c1cccc([N+](=O)[O-])c1)c1ccccn1	2.2	-0.38
CCOC(=O)C1=C(CC)OC(N)=C(C#N)C1c1ccc(NC(C)=O)cc1 (stereo unspecified)	0.01	2.3
Cc1ccc(NC(=S)NCCCN2CCOCC2)cc1	0.54	0
CC(=O)c1ccc(NC(=O)NC2CC(=O)N(c3ccc4c(c3)OCCO4)C2)cc1 (stereo unspecified)	0.2	-0.17
Cc1ccc(C2(C)NC(=O)N(CC(=O)Nc3nc(-c4ccccn4)cs3)C2=O)cc1 (stereo unspecified)	0.01	-1.2
Cc1cc(/C=C(\C#N)C(=O)NCc2cccs2)c(C)n1-c1ccccc1F	1.4	-0.88
O=C(CNC(=O)C1CCCCC1)Nc1ccc(Cl)cc1	0.18	-2.6
CC(C)CC(=O)N1CCN(Cc2ccc3ccccc3c2)CC1	0.91	-0.82
CCOC(=O)CCCCC(=O)c1[nH]c(=O)[nH]c1C[n+]1ccccc1	0.13	1.1
CCCCN(CC)CCNC(=O)CN1C(=O)COc2ccc(S(=O)(=O)N3CCCC3)cc21	0.02	-0.06
Cc1cccc(C)c1NC(=O)CNC(=O)c1c(C)nn(C)c1Cl	0.01	1.1
O=C(CNC(=O)c1ccncc1)Nc1ccc(F)c(F)c1	0.32	-0.03
CCOC(=O)N1CCN(c2ncnc3c2cnn3-c2ccc(OC)cc2)CC1	0.66	0.62
CCC1CCc2[nH]nc(C(=O)O)c2C1 (stereo unspecified)	0.02	-1.2
CSCCC1NC(=S)N(Cc2ccccc2)C1=O (stereo unspecified)	1.3	-0.13
O=S1(=O)N=C(N2CCN(Cc3ccccc3)CC2)c2ccccc21	1.6	-0.99
O=C1Nc2ccccc2N(O)N1c1cc(-c2ccc(Cl)cc2)[nH]n1	0.3	0.15
CN(C)S(=O)(=O)c1cccc(NC(=O)COc2cccc(C#N)c2)c1	1.3	-0.58
COc1cc(NC(=O)Cn2cnc(S(=O)(=O)N3CCC(C)CC3)c2)cc(OC)c1OC	0.24	-0.96
COc1ccc(C(=O)CC2(C(=O)O)CCCCC2)cc1	0.45	2.5
COc1cc(O)ccc1C=O	0.46	0.01
COc1ccc(OC)c(NC(=O)c2ccc(N3C(=O)C4CC=C(C)CC4C3=O)cc2)c1 (stereo unspecified)	0.08	-0.6
CC(C)c1nc(SCC(=O)N2CCCC2)c2ccccc2n1	1.1	0.2
O=C(CN(c1ccccc1)S(=O)(=O)c1ccc(Cl)cc1)Nc1ccccc1C(=O)N1CCCC1	0.9	0.59
COc1ccc(-c2cc(C(F)(F)F)nc(N3CCN(Cc4ccccc4)CC3)n2)cc1OC	-5.6	·
Cc1nn(C(=O)N(C)C)c(C)c1CN1C(=O)c2ccccc2C1=O	0.45	-1.1
CCOc1ccc(-n2ccnc(SCC(=O)Nc3ccc(CC)cc3)c2=O)cc1	1.9	-0.14
COc1ccc(-c2nnc3ccc(SCC(=O)N4CCOCC4)nn23)cc1	0.2	0.14
CCn1c2ccccc2c2cc(NC(=O)CSc3nnc(C4CC4)n3Cc3ccco3)ccc21	2.1	0.02
